B2AR ag = human beta-2 adrenergic receptor agonism by FAP; response, % (test concentration not listed); 340,000 tested, 0.43% active; AID 504454; Am2.2-beta2AR cells, FAP receptor internalization, flow cytometry; reference of the scale not given here;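 active means response above a set limit, near 3 SD of response in nonfluorescent compounds, cut at about 42% in these data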;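 further: stock transfer was 100 nL into about 11 µL; a reference agonist was the positive control; negative values mostly stem from fluorescent compounds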
Target sequence (P07550 whole entry, looked up): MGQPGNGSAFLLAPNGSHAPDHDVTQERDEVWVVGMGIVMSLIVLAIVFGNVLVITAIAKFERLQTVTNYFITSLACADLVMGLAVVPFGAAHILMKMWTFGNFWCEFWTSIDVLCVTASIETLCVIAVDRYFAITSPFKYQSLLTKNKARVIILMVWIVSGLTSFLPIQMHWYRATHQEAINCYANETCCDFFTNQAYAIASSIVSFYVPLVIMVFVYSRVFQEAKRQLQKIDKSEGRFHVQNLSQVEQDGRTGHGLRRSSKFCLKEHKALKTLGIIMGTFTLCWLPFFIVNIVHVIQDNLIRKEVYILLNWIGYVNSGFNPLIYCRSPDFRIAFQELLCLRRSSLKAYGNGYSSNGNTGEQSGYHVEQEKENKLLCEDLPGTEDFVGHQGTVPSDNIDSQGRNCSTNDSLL
UCH37 inh = inhibitors of human deubiquitinating enzyme UCH37; Q9Y5K5; purified proteasome/UCH37, Ub-AMC cleavage fluorescence; inhibition, % (no concentration beside the values); 330,000 tested, 0.33% active;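 active means mean of two replicates above 20%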;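 further: 0% = compound-free wells with enzyme and 100% = wells lacking proteasome; stock transfer was 100 nL into about 20 µL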
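Signal – fluorescence, ex 355 nm, em 460 nm · System – Proteasome-bound UCH37 · Input – 0.15 nM proteasome as dispensed · Timing – 30 min preincubation with enzyme, 25 min cleavage at room temperature · Read-out basis – percent inhibition of cleavage signal versus uninhibited and no-proteasome wells · Medium – Tris-HCl pH 7.4 with ATP-MgCl2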
E coli growth = inhibitors of Escherichia coli growth | OD600, 23 h; stronger effect = lower value | OD600 absorbance (test concentration not listed) | 330,000 tested, 0.21% active;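 active means OD600 absorbance below the run mean of sample wells minus 3.6 SD, in any replicate, cut at about 0.56 in these data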;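 further: stock transfer was 300 nL into about 60 µL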
rRNA inh HTS = inhibits bacterial ribosomal RNA function over humanized ribosomes | E. coli WT GFP vs humanized-ribosome RFP mutants, fluorescence, 24 h; stronger effect = lower value; DMSO median 0, no signal -100 | GFP signal change (wild-type ribosome), % (no concentration beside the values) | 350,000 tested, 1.6% active | AID 720706;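 active means significant combined selectivity score with lowered wild-type GFP, culture density cut under 30%, mutant RFP and density less affected; inactive means any of these conditions unmet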; further: one replicate is shown; some compounds called inactive have numbers as strong as hits
FGF22 binding = FGF22 (human) thermal shift binding; Q9HCT0; recombinant FGF22 thermal shift, SYPRO orange fluorescence; percent of sucrose octasulfate shift, DMSO zero; calls only at 9.99 µM; 340,000 tested, 1.5% active;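 active means melting point raised past a set limit in the mean and every replicate; inconclusive means no clear call; three in four hits are not shown here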
HNF4A DNA FP = change in binding of human HNF4 alpha to DNA. P41235. HNF4a-FITC DNA binding, fluorescence polarization, 1 h. activity change, % at 10 µM. 360,000 tested, 0.3% active. AID 1224865; in the data active means activity change above about 30%, passing the limit was not always enough;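 further: controls were the assay level and a saturating level of protein; the project sought stronger binding though the title names inhibitors; some compounds called inactive have numbers as strong as hits; positive values seem to mean higher polarization but the record does not say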
Target sequence (P41235 whole entry, looked up): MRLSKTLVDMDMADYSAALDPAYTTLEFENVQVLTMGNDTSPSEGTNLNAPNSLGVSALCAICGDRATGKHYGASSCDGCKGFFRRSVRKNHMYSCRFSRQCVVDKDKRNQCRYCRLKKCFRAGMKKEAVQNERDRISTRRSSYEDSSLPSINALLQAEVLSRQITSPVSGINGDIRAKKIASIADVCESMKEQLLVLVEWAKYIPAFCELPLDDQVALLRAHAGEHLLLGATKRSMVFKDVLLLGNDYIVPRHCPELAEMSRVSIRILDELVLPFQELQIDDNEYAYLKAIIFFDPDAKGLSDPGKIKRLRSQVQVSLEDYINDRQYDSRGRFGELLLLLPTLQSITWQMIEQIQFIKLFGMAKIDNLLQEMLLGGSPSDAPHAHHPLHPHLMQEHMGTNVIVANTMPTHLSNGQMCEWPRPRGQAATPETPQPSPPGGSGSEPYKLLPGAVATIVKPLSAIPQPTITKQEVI
ALR inh = human ALR oxidase inhibition via reduced H2O2 | inhibition, % (test concentration not listed) | AID 485317 | purified ALR, DTT oxidation, H2O2 HRP-luminol luminescence | 290,000 tested, 3.8% active | P55789;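 active means mean and each replicate at 75% or more; inconclusive means only one of the two met; inactive means neither met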;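 further: stock transfer was 7.5 nL into about 7.5 µL; 0% = neutral wells and 100% = wells with inactivated enzyme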
Target sequence (P55789 whole entry, looked up): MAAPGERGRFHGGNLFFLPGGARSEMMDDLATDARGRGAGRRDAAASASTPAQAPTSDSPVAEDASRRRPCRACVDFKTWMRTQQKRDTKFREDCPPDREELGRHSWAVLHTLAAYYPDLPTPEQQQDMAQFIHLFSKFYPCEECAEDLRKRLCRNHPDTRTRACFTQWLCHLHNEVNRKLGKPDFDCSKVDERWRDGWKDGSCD
rRNA inh HTS OD600 = further read-out of rRNA inh HTS, marked with its call; OD600 change, %; measured here: OD600 growth;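 optical density of the mix in the first replicate; 0 = DMSO median and -100 = no signal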
rRNA inh HTS RFP = further read-out of rRNA inh HTS, marked with its call; RFP signal change, %; measured here: RFP humanized mutant strains;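 first replicate; 0 = DMSO median and -100 = no signal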
An asterisk follows results filed as active; i = inactive; u = inconclusive; x = no result given; & = joins results of further samples. These rows are one share of the data; the hit share may differ from the screen's.

SMILES | B2AR ag | UCH37 inh | E coli growth | rRNA inh HTS | rRNA inh HTS OD600 | rRNA inh HTS RFP | FGF22 binding | HNF4A DNA FP | ALR inh
CC(C)COC(=O)Nc1ccc(C(=O)O)cc1 | 10 | 3.8 | 0.7 | x | x | x | x | -0.8 | 24
OCC1(Cc2ccccc2)CCN(Cc2cnn(-c3ccccc3F)c2)CC1 | -5 | 5.3 | 0.7 | -3 | -4 | -3.9 | i | -0.7 | -5
Cc1ccc(OCCNC(=O)c2cc(C3CC3)nc3c2cnn3C(C)C)cc1 | 13 | -5.3 | 0.67 | -26 | -30 | -1.9 | i | -1.5 | -5
CN1CCC(N(C)S(=O)(=O)c2ccc(NC(=O)c3cccc(C#N)c3)cc2)CC1 | -4 | 1.3 | 0.67 | 2 | 5 | -2.2 | i | -0.3 | -3
Cc1ccc(S(=O)(=O)N2CCC(C(=O)Nc3ccccc3N3CCCC3)CC2)c(C)c1 | 6 | 3.7 | 0.71 | 7 | 0 | 2.7 | x | 3.6 | x
CCCCCOC(=O)CSc1n[nH]c(=O)[nH]c1=O | 10 | 3.7 | 0.71 | x | x | x | x | 3.9 | -7
CC(=O)c1sc2ccccc2c1OC(=O)c1ccco1 | 1 | -1.5 | 0.72 | x | x | x | x | -0.4 | 41
O=C(CCCCCN1C(=O)CCC1=O)Nc1ccc(Cl)c(C(F)(F)F)c1 | -9 | 0.5 | 0.64 | x | x | x | x | -0.4 | -3
Cc1cc(C)c2c(CN3CCN(C)CC3)cc(=O)oc2c1 | 7 | 2.7 | 0.69 | x | x | x | x | 2.9 | -3
CCOC(=O)C1CCN(S(=O)(=O)c2ccc3c(c2)CCN3C(C)=O)CC1 | 4 | 4.9 | 0.71 | 3 | 2 | 6.1 | i | 1.3 | 1
CCN(CC(=O)NC1CCS(=O)(=O)C1)C(=O)c1ccc(OC)c([N+](=O)[O-])c1 (configuration not stated) | 3 | 3.4 | 0.71 | 24 | 19 | 4.2 | i | 9.6 | 2
O=C(Nc1ccc(Cl)cc1)c1nc[nH]c1C(=O)NCc1ccccc1 | 5 | -0.7 | 0.69 | x | x | x | x | -4.4 | 4
O=C(Nc1cccc(S(=O)(=O)NC2=NCCC2)c1)c1cc(F)c(F)c(F)c1F | 7 | 5.7 | 0.68 | 12 | 9 | 2.3 | i | 0.5 | x
CC1CN(c2oc(-c3ccccc3Cl)nc2C#N)CC(C)O1 (configuration not stated) | -8 | -66 | 0.8 | x | x | x | x | -2.2 | x
CCC(C)C(=O)C(=O)N1CCC(n2nccc2NC(=O)CCOc2ccccc2)CC1 (configuration not stated) | x | x | x | -4 | -8 | -6.2 | i | -8.0 | x
CC(=O)c1cccc(OCc2cc(C(=O)N(C)Cc3nccs3)no2)c1 | x | x | x | -5 | -1 | 0.5 | i | -1.9 | x
CCOC(=O)c1sc(N2N=C(C)/C(=C\c3ccc(OCC(=O)OC)cc3)C2=O)nc1C | 24 | -0.9 | 0.67 | x | x | x | x | 4.5 | x
C=CCn1c(SCc2ccc(C(=O)NCCO)cc2)nc2ccccc2c1=O | 0 | 4.7 | 0.67 | -8 | -24 | 2.8 | i | 1.8 | 99*
COc1ccccc1-c1n[nH]c(=S)n1Cc1ccco1 | x | 0.5 | 0.69 | x | x | x | x | x | 7
CN(C)S(=O)(=O)N1CCN(C(=O)c2ccc3c(c2)OCO3)CC1 | -2 | 2.3 | 0.68 | 4 | 5 | -0.9 | i | -2.7 | x
N/C(=N\O)c1ccc(Cl)cc1Cl | -3 | x | x | 0 | 4 | -1.5 | i | 0.3 | -15
Cc1ccc(NC(=O)COc2ccc(Br)cc2C)cc1 | 23 | -1.4 | 0.69 | -9 | -5 | 1.6 | i | 0.9 | x
C#CCOCCOCCOCCNc1nc(N2CCN(C(=O)Cn3cc(CCCCN)nn3)CC2)nc(N2CCN(C(=O)[C@H](C(C)C)n3cc(CCO)nn3)CC2)n1 | 4 | -2.2 | x | x | x | x | x | 1.9 | 11
CC(=O)Nc1ccc(S(=O)(=O)N2CCN(C(=O)c3ccco3)CC2)cc1 | -11 | 1.9 | 0.65 | 12 | 8 | 3.6 | i | 0.1 | -9
COc1ccc(C(=O)CN2CCN(c3ccc(Cl)cc3)CC2)cc1OC | 0 | 4.5 | 0.66 | 5 | 8 | -0.1 | i | -4.5 | 1
Cc1ccc2c(c1)N(CC(=O)NCCCN1CCCCC1)C(=O)c1cccnc1O2 | 3 | 2.8 | 0.73 | 15 | 16 | 8.7 | i | 1.0 | -9
Cc1cc(OCCOCCN(C)C)ccc1Cl | 5 | 3.1 | 0.68 | 10 | 7 | -4.2 | i | -5.2 | -3
Cc1ccc(S(=O)(=O)N2CCN(c3ccnc4cc(Cl)ccc34)CC2)cc1 | -5 | -0.9 | 0.72 | -22 | -32 | -6.1 | i | -3.2 | x
COc1cc(/C=N/O)cc(Br)c1OS(=O)(=O)c1ccc(C)cc1 | 16 | x | x | x | x | x | x | -0.6 | -15
CCc1ccc(NC(=O)NNC(=O)c2cc3ccccc3cc2O)cc1 | -1 | -15 | 0.7 | 12 | 15 | 4.3 | i | 0.1 | 4
C=C(C)Cn1c(=S)[nH]c2ccccc2c1=O | -2 | -0.4 | 0.69 | x | x | x | x | -0.3 | -2
COC(=O)c1[nH]c2ccccc2c1NC(=O)CCN1CCSCC1 | 3 | -4.5 | 0.71 | x | x | x | x | -6.9 | -11
CC1CC(C)(C)NC(=S)N1CCC(=O)Nc1ccc2c(c1)OCCO2 (configuration not stated) | -9 | 3.8 | 0.74 | 1 | 9 | -4.4 | i | 0.6 | 2
CC(C)CN(C(=O)COC(=O)c1cncc(Br)c1)c1c(N)n(Cc2ccccc2)c(=O)[nH]c1=O | 8 | 0.3 | 0.67 | 9 | 8 | 4.1 | i | -1.7 | 6
CCN(CC)c1ccc(/C=N/NC(=O)C(O)c2ccccc2)cc1 (configuration not stated) | 0 | x | x | 10 | 2 | 1.1 | i | -2.9 | 100*
O=C(Nc1cnc2ccccc2c1)c1ccco1 | -19 | 5.7 | 0.71 | x | x | x | x | 1.4 | -5
COc1ccc(N2CC(C(=O)N[C@H](C(=O)NC(C)c3ccccc3)C(C)C)CC2=O)cc1 (some centres not stated) | -3 | 2.1 | 0.7 | 5 | 4 | -2.6 | i | 2.0 | -1
CCOC(=O)C1CCCN(c2cc(=O)n(-c3ccccc3Cl)c(=O)[nH]2)C1 (configuration not stated) | 9 | 1.5 | 0.75 | 0 | 6 | -1.3 | i | 2.1 | 5
Cc1ccccc1C1CC(c2ccc(Br)cc2)Nc2nc(N)nn21 (configuration not stated) | 0 | -0.6 | 0.76 | -11 | -33 | 6.4 | i | -1.6 | 4
Cc1ccc(Oc2ncccc2/C=N/O)cc1 | -9 | x | x | x | x | x | x | -1.9 | 61

For convenience, four of the compounds above.
SMILES | B2AR ag | UCH37 inh | E coli growth | rRNA inh HTS | rRNA inh HTS OD600 | rRNA inh HTS RFP | FGF22 binding | HNF4A DNA FP | ALR inh
Cc1ccc2c(c1)N(CC(=O)NCCCN1CCCCC1)C(=O)c1cccnc1O2 | 3 | 2.8 | 0.73 | 15 | 16 | 8.7 | i | 1.0 | -9
Cc1cc(OCCOCCN(C)C)ccc1Cl | 5 | 3.1 | 0.68 | 10 | 7 | -4.2 | i | -5.2 | -3
Cc1ccc(S(=O)(=O)N2CCN(c3ccnc4cc(Cl)ccc34)CC2)cc1 | -5 | -0.9 | 0.72 | -22 | -32 | -6.1 | i | -3.2 | x
COc1cc(/C=N/O)cc(Br)c1OS(=O)(=O)c1ccc(C)cc1 | 16 | x | x | x | x | x | x | -0.6 | -15

The listing continues:
SMILES | B2AR ag | UCH37 inh | E coli growth | rRNA inh HTS | rRNA inh HTS OD600 | rRNA inh HTS RFP | FGF22 binding | HNF4A DNA FP | ALR inh
CCOc1ccc(C(=O)NCC2CCCN2S(=O)(=O)c2cccs2)cc1 (configuration not stated) | 2 | 0.3 | 0.66 | -6 | -4 | -1.0 | i | 0.4 | x
Cc1c(CC(=O)O)c(=O)oc2cc3occ(-c4ccccc4)c3cc12 | 18 | -5.3 | 0.64 | -19* | -1.7* | 4.3* | i | 0.0 | 1
O=C(NC(=S)Nc1ccc(CN2CCOCC2)cc1)c1cccc([N+](=O)[O-])c1 | 27 | -2.6 | 0.67 | x | x | x | x | -1.1 | 17
C[C@@H]1CN([C@H](C)CO)C(=O)CCCn2nncc2CO[C@H]1CN(C)C(=O)c1ccccc1 | x | x | x | 13&1 | 14&5 | -0.4&-3.1 | i | 2.1 | x
CC1(C)CC(=O)C(C=NCCN2CCN(C3CC(=O)N(c4ccc(Cl)c(Cl)c4)C3=O)CC2)=C(O)C1 (configuration not stated) | -17 | 3.8 | 0.67 | x | x | x | x | 1.9 | 25
CCn1c(SCC(=O)Nc2ccc(S(N)(=O)=O)cc2)nnc1-c1ccccc1OC | -4 | -2.4 | 0.67 | x | x | x | x | -1.9 | x
Clc1ccc(OCCCc2nc(-c3ccncc3)no2)c(Cl)c1 | -13 | 2.9 | 0.71 | x | x | x | x | 1.4 | x
COc1ccc(OC)c2c1sc(=NC(=O)c1cccc(N3C(=O)CCC3=O)c1)n2C | 7 | -18 | 0.7 | -4 | 0 | -0.5 | i | 5.8 | -5
Cc1cccc(N2CCN(S(=O)(=O)c3c(C(=O)N4CCCCC4)c(C)n(C)c3C)CC2)c1C | -1 | 1.3 | 0.66 | 4 | -21 | 10 | i | -1.6 | 5
NC(=O)COC(=O)CCCSc1nc2ccccc2s1 | 10 | 4.8 | 0.68 | -11 | -6 | -4.5 | i | 5.2 | -27
Clc1ccc(OCCCN2CCCC2)cc1Cl | 7 | 5.1 | 0.6 | x | x | x | x | -4.2 | -10
C[C@H](CO)N1C[C@H](C)[C@@H](CN(C)C(=O)c2ccccc2)OCc2cnnn2CCCC1=O | x | x | x | 15&2 | 18&0 | 2.0&-2.3 | i | 2.2 | x
CSCC[C@H](NC(=O)OC(C)(C)C)C(=O)N/N=C/c1cccc2nccnc12 | -2 | x | x | 13 | 2 | 3.6 | i | 3.2 | -4
Cc1ccccc1COC(=O)CCC1=NS(=O)(=O)c2ccccc2N1 | 0 | -2.2 | 0.67 | 2 | 5 | 2.2 | i | 0.3 | -1
CCc1cc(C(=O)O)c(NC(=O)/C=C/c2ccc(OC)cc2)s1 | 31 | 19 | 0.69 | -29 | -40 | -16 | i | 1.5 | u
COC(=O)CN(c1nc(C)c(Br)c(OC)n1)S(=O)(=O)c1ccccc1 | 8 | 2.4 | 0.67 | -31 | -44 | -9.4 | i | -1.7 | -2
O=C(NNC(=O)C12CC3CC(CC(C3)C1)C2)c1ccccn1 | 36 | -0.6 | 0.62 | -43* | -22* | -13* | i | -1.2 | -8
O=C(CN(c1ccccn1)S(=O)(=O)c1ccc(F)cc1)Nc1ccccc1 | -1 | -11 | 0.69 | 15 | 7 | 7.2 | i | 2.0 | 1
c1ccn2c(SCc3ccc4c(c3)OCO4)nnc2c1 | -4 | -0.8 | 0.71 | x | x | x | x | -0.6 | -16
CC(NC(=O)c1ccco1)C(c1cccs1)N1CCN(c2ccccc2)CC1 (configuration not stated) | -3 | -0.4 | 0.77 | 0 | -15 | -5.4 | i | 2.1 | 98*
CCc1ccc(/C=C2\Oc3cc(OC(=O)N4CCOCC4)ccc3C2=O)cc1 | -5 | -0.5 | 0.69 | x | x | x | x | -2.5 | 40
CCN(CC)CCCNC(=O)COc1ccc2oc3c(c2c1)CCCC3 | -2 | 1.3 | 0.64 | 3 | 5 | 2.5 | i | -0.7 | 83*

High-throughput results deposited in PubChem BioAssay by several laboratories.
